Screening results as filed in PubChem BioAssay.
Polio RdRp inh – inhibitors of poliovirus RNA polymerase binding and polymerization; AID 588519; P03300; % elongation, % (compound at 16.7 µg/mL); poliovirus polymerase elongation, fluorescence polarization; stronger effect = lower value; 150,000 tested, 0.66% active; in the data active = % elongation below about 90%; also: some results filed as inactive read as strong as hits
Target sequence (P03300 1749-2209 limits assumed): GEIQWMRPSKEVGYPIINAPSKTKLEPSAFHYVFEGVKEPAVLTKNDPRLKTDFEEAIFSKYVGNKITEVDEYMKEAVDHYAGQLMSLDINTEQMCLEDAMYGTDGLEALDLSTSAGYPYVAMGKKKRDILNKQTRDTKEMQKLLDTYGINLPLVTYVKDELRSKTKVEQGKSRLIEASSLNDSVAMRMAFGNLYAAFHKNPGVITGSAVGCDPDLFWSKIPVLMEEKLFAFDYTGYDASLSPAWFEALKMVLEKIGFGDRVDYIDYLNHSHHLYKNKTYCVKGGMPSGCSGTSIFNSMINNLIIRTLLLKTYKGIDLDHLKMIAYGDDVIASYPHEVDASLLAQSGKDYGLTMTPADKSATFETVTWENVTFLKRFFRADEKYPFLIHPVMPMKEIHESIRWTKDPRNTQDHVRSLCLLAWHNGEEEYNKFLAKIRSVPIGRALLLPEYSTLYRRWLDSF
MbtI inh – blocks the Mycobacterium tuberculosis siderophore enzyme MbtI | inhibition, %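 (about 17 µg/mL by stock and volumes)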 | purified MbtI enzyme, fluorescence intensity read-out | AID 493033 | 100,000 tested, 0.89% active | P9WFX0;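 active = above 50% in both replicates, above 80% if mildly self-fluorescent; inactive = the rest, strongly fluorescent compounds included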;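 also: 0% = mean of negative and 100% = mean of positive controls; one replicate is shown; some compounds called inactive have numbers as strong as hits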
MenB inh – inhibitors of Mycobacterium tuberculosis MenB enzyme. P9WNP5. MenB enzyme assay, absorbance read-out; some hits fall short of the stated cut. inhibition, %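 (about 12 µg/mL by stock and volumes)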. 100,000 tested, 0.43% active. AID 540299;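 active = mean of two replicates above 30%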;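 also: 0% = no compound and 100% = wells with inactive enzyme; the first replicate is given; strong numbers were not always called active; inactives centre near -10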
Target sequence (P9WNP5 whole entry, looked up): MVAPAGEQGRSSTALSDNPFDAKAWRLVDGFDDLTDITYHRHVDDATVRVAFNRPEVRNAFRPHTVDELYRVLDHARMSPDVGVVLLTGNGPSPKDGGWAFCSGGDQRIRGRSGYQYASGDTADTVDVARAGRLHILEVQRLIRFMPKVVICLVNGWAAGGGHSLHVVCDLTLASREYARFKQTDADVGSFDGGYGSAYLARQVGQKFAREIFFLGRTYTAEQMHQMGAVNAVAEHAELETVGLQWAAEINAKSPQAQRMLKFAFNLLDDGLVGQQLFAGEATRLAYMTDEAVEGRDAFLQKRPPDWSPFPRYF
Polio RdRp inh intensity – further read-out of Polio RdRp inh, marked with its call; % elongation; measured here: total intensity read-out; formula for this scale not given here;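 total fluorescence in place of polarization; lower means less elongation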
* = called active by the depositor; i = inactive; . = no result given; & = joins results of further samples. The order is random; any-hit rate near 1.9%.

Screens in order: Polio RdRp inh | Polio RdRp inh intensity | MbtI inh | MenB inh
- N#CC1=C(N)NC(SCc2ccccc2)=C(C#N)C1c1ccccc1Cl (stereo not given)
 : 106 | 107 | . | -47
- C1CCN(CC2COC3(CCCC3)O2)C1 (stereo not given)
 : 100 | 99 | -13 | .
- Cc1cc(=O)n2[nH]c(SCc3ccc(Cl)cc3)nc2n1
 : 105 | 105 | 43 | -13
- CC1(C)CCc2cc(CN3CCN(c4ccc(C(F)(F)F)cn4)CC3)ccc2O1
 : 104 | 103 | 7 | -19
- O=C(NN1CCCCC1)C(O)(c1ccsc1)c1ccsc1
 : 109 | 112 | . | -1
- CC(C)(Oc1ccc(Cl)cc1)C(=O)Nc1ccc2oc(-c3cccnc3)nc2c1
 : 101 | 102 | -27 | -15
- O=C(NC1CCCCC1)C1CCC(Cn2c(=S)[nH]c3ccccc3c2=O)CC1 (stereo not given)
 : 102 | 105 | 2 | 16
- CCc1cccc(NC(=O)C2CCCN(c3ncccn3)C2)c1 (stereo not given)
 : 105 | 102 | 0 | -38
- COc1ccc(-c2cc(=O)oc3c(C)c(O)ccc23)cc1
 : 99 | 99 | 6 | -21
- O=C(NCc1ccccc1Cl)c1cnccc1C(F)(F)F
 : 98 | 100 | -6 | -16
- COc1ccc(OCCOC(=O)c2ccc(OCc3c(C)noc3C)cc2)cc1
 : 101 | 102 | 4 | -18
- C/C(=N\NC(=O)COc1ccc(C#N)cc1)c1ccc(N2CCOCC2)cc1
 : 100 | 99 | 11 | -3
- CC(C)(C)OC(=O)N1CCCN(S(=O)(=O)c2cc(Cl)ccc2Cl)CC1
 : 95 | 100 | -5 | -8
- CCC(=O)Nc1cccc(NC(=O)CSc2nnnn2C2CCCC2)c1
 : 104 | 100 | -6 | -32
- CCc1ccc(C(=O)Nn2cnnc2)cc1
 : 101 | 100 | -7 | -20
- Cc1nn(CC(C)C)c2sc(C(=O)N3CCCC3c3nc4ccccc4s3)cc12 (stereo not given)
 : 102 | 98 | -5 | -26
- CCN1CCCC1CNC(=O)Cn1c(=O)c2cccn2c2ccccc21 (stereo not given)
 : 100 | 105 | 10 | 19
- Cn1c(O)c(C=Nc2cccc(Cl)c2)c2ccccc21
 : 103 | 97 | -23 | -28
- Cc1nn(C)c(C)c1NC(=O)CC12CC3CC(CC(C3)C1)C2
 : 104 | 105 | -35 | 1
- C=CCn1cnnc1SCC(=O)NCc1cc(C)c(O)c(C)c1
 : 104 | 107 | 8 | 1
- O=S(=O)(c1ccc2c(c1)OCCO2)N1CCCCC1
 : 104 | 107 | 0 | -33
- CC(=O)Nc1ccc(C(=O)OCC(=O)N2CCCC(C)C2)cc1 (stereo not given)
 : 104 | 98 | 2 | .
- CN(C(=O)CSC1=NCCS1)C1CCCCC1
 : 99 | 104 | -5 | .
- CSc1ccc(-c2ccco2)nn1
 : 103 | 107 | 33 | -20
- Cc1cc(=O)[nH]c(N2CCCCC2)n1
 : 103 | 106 | 3 | -26
- O=C(COc1ncnc2sccc12)N1CCc2ccccc21
 : 110 | 141 | -6 | 7
- CC1Cc2ccccc2N1C(=O)CSc1ccccc1 (stereo not given)
 : 100 | 97 | -6 | .
- CSc1ccccc1-n1nnnc1SCc1ccccc1
 : 101 | 103 | -13 | 0
- O=C(NC1C2CC3CC(C2)CC1C3)c1ccc(Br)o1 (stereo not given)
 : 104 | 109 | . | 1
- Cc1ccc(C)c(NC(=O)C(NCC(C)(C)N2CCOCC2)c2ccccc2)c1 (stereo not given)
 : . | . | -13 | -14
- CC1Oc2ccc(N)cc2N(C)C1=O (stereo not given)
 : 101 | 103 | 7 | -54
- CCOc1ccc(Br)cc1S(=O)(=O)Nc1ncn[nH]1
 : 104 | 100 | -1 | -11
- CCOC(=O)N1CCN(C(=O)C(C)Oc2ccc(C(C)(C)C)cc2)CC1 (stereo not given)
 : 100 | 100 | -17 | -5
- CC1CCC(=O)C(C2(O)C(=O)Nc3ccccc32)C1 (stereo not given)
 : 100 | 102 | -4 | 19
- CC1(C)N=C(c2ccc(Cl)cc2)C(=S)N1
 : 104 | 103 | 9 | -16
- Cc1ccc(N2C(=O)c3ccccc3C2(O)Cc2ccccc2)cc1 (stereo not given)
 : 100 | 105 | -28 | -5
- O=c1oc2ccccc2cc1-c1nnc(-c2ccncc2)o1
 : 101 | 101 | -294 | 1
- Cc1onc(-c2c(Cl)cccc2Cl)c1NC(=O)N/N=C/c1ccccn1
 : 99 | 100 | 1 | -7
- COc1ccccc1/C=C/C(=O)N1CCCC(c2ccccc2)C1 (stereo not given)
 : 98 | 95 | -5 | -11
- O=C1OC(c2ccc(Cl)cc2)=N/C1=C\N1CC2CC(C1)c1cccc(=O)n1C2 (stereo not given)
 : 103 | 100 | 6 | -13
- CC(C)c1ccccc1-n1cc[nH]c1=S
 : 98 | 92 | 24 | -29
- CCC(C)(Nc1n[nH]c(=O)[nH]c1=O)C(=O)O (stereo not given)
 : 104 | 94 | . | -17
- O=S(=O)(Cc1ccccc1)n1cc(Cl)cn1
 : 101 | 100 | -10 | -6
- O=C1NN=C(c2cc3ccccc3oc2=O)CC(c2ccco2)N1 (stereo not given)
 : 109 | 114 | . | 0
- CCOc1ccc(-c2n[nH]c(=S)n2C2C=CCCC2)cc1 (stereo not given)
 : 102 | 97 | 52 | -59
- CCOc1ccc(OCCn2ccnc2)cc1
 : 99 | 102 | -23 | -8
- Cc1cc(=O)[nH]c(N/N=C/C(C)c2ccccc2)n1 (stereo not given)
 : 98 | 102 | 10 | 13
- O=C1Nc2ccccc2C1(O)C(F)(F)F (stereo not given)
 : 104 | 105 | -1 | -25
- NC(N)=Nc1nc2ccccc2[nH]1
 : 102 | 106 | . | -9
- CCOCC(=O)Nc1ccc(OCC)cc1
 : 101 | 103 | -10 | 5
- CCS(=O)(=O)N1CCN=C1SCc1ccccc1
 : 103 | 105 | -3 | 2
- CC(Sc1nnc(CC(=O)Nc2ccccc2)n1C)C(=O)Nc1nccs1 (stereo not given)
 : 101 | 112 | -2 | 32
- O=S1(=O)N=C(Oc2ccccc2)c2ccccc21
 : 95 | 90 | . | -5
- CCOc1nc(-c2ccc(Cl)cc2)nc2ccccc12
 : 100 | 106 | -4 | 1
- CCOc1ccc(CNC(=O)CCC(=O)N2CCOc3ccccc32)cc1
 : 101 | 103 | -11 | -3
- COc1ccc(C2CC(=O)Oc3ccc(C(C)(C)C)cc32)cc1 (stereo not given)
 : 109 | 114 | . | -23
- CCOC(=O)N1CCC(NC(=O)Cn2nc(Cc3cccnc3)c3ccccc3c2=O)CC1
 : 102 | 106 | -4 | 13
- CCOC(=O)/C(C#N)=C/N1CCCc2ccccc21
 : 102 | 101 | 6 | -21
- O=C(CCCc1c[nH]c2ccccc12)N1CCN(c2ccc(F)cc2)CC1
 : 105 | 99 | 1 | -38
- CCNC(=O)Oc1ccccc1
 : 107 | 117 | -6 | -22

Complete entries from above. Values in the order: Polio RdRp inh, Polio RdRp inh intensity, MbtI inh, MenB inh
CCOC(=O)N1CCC(NC(=O)Cn2nc(Cc3cccnc3)c3ccccc3c2=O)CC1 is listed as 102, 106, -4, 13
O=S(=O)(Cc1ccccc1)n1cc(Cl)cn1 is listed as 101, 100, -10, -6
CCS(=O)(=O)N1CCN=C1SCc1ccccc1 is listed as 103, 105, -3, 2
CCOc1nc(-c2ccc(Cl)cc2)nc2ccccc12 is listed as 100, 106, -4, 1
Cc1ccc(N2C(=O)c3ccccc3C2(O)Cc2ccccc2)cc1 (stereo not given) is listed as 100, 105, -28, -5

(further entries)
canonical_smiles	Polio RdRp inh	Polio RdRp inh intensity	MbtI inh	MenB inh
CCCC(=O)Nc1c2c(nc3ccccc13)N(c1ccccc1)CC2	102	103	i	5
O=C(CSC1=NCCS1)NC1CCCCC1	102	109	2	.
COC(=O)c1ccc(C[N+]2(C)CCCCC2)cc1	102	96	-5	-25
O=C(CSc1ccnc(=O)[nH]1)N1CCCCC1	104	103	10	6
O=C(Nn1c(Cc2ccccc2)nc2ccccc2c1=O)c1ccco1	99	101	-1	3
O=C(CSc1nc2ccccc2s1)N=Nc1c(O)n(CN2CCCC2)c2ccccc12	102	103	74	-61
Cc1onc(-c2ccccc2Cl)c1C(=O)NC(=S)NC1CCS(=O)(=O)C1 (stereo not given)	102	105	15	-23
C/C(=N\N)c1ccc(OC(C)C)c(CN2CCOCC2)c1	99	103	2	-11
COc1ccc(/C(C)=N/NC(=O)CC2(C)OCCO2)c(OC)c1	102	100	0	-24
Cc1cc2c(cc1NC(=O)CC13CC4CC(CC(C4)C1)C3)n(C)c(=O)n2C	99	103	-24	7
N#CCN(CC#N)C(=O)Cc1ccc(Br)cc1	100	104	-1	11
CCOC(=O)c1cc(C(C)(C)C)[nH]c(=S)c1C#N	109	114	-7	-12
O=C(O)c1ccccc1Nc1ccn2c(=O)c3ccccc3nc2n1	101	100	-8	-15
Cc1cccc(S(=O)Cc2ccc(C(=O)N3CCc4ccccc43)o2)c1 (stereo not given)	99	98	37	11
Cc1ccc(S(=O)(=O)CCC(=O)O)cc1C	98	95	-3	-6
Cc1cnc2c(c1)C(=Nc1ccccc1)c1ccccc1-2	104	106	.	-14
Cc1cc(=O)c(C(=O)NCc2ccccc2CN2CCCC2)nn1-c1ccccc1	100	97	4	-11
Cn1cccc1C(=O)Nc1ccc(S(=O)(=O)N2CCOCC2)cc1	102	104	-5	8
CCC1C(=O)CC(c2ccco2)NC1c1ccco1 (stereo not given)	103	106	-3	-3
COc1ccc(OC)c(CCCc2cc(OC)ccc2OC)c1	102	108	-9	-8
C(=N\[n+]1ccccc1)/c1ccccc1	104	104	-3	.
S=C(NC1CC1)N1CCCN(Cc2cccc3ccccc23)CC1	108	110	-4	-14
COc1ccc(NC(=O)C(C)N2CCN(C)CC2)cc1 (stereo not given)	103	102	-5	9
Cc1ccc(C(=O)NCCc2csc3nc(-c4cccc(C)c4)nn23)cc1	106	106	2	0
Cn1c(NC(=O)Cc2ccc(F)cc2)nc2ccccc21	102	104	-9	-51
Nc1ccc2nc(SCc3ccc(F)cc3)sc2c1	104	103	11	-6
N=c1oc2ccc(Cl)cc2cc1C(N)=O	103	100	9	-11
CCCNC(=O)C1CCN(S(=O)(=O)c2ccccc2)CC1	106	103	-7	-33
COC(=O)C1=CN(Cc2ccc(C)cc2)C=C(C(=O)OC)C1c1ccc(C)s1	102	105	75	-17
O=C(NCCN1CCOCC1)c1ccncc1	102	101	-11	-21
Cc1ccc2cnn(CC(=O)NCCN3CCOCC3)c2c1	102	101	-1	-8
Cc1ccc(S(=O)(=O)NC(=O)N2CC3CC(C2)c2cccc(=O)n2C3)cc1 (stereo not given)	101	102	2	-21
COc1ccc(N(C(C)C(=O)N=Nc2c(O)[nH]c3ccccc23)S(C)(=O)=O)cc1 (stereo not given)	101	101	-29	-32
CCc1ccc(C(=O)Nn2cnc3ccccc3c2=O)cc1	100	102	-1	4
CCN(CC)C(=O)Oc1nnc(SC(C)C)n1-c1ccc(Cl)c(Cl)c1	107	101	-1	-20
O=C(CCS(=O)(=O)c1ccc(F)cc1)N1CCCC1c1nc2ccccc2s1 (stereo not given)	107	106	10	-19
C=CCc1c(C)[nH]c2ccc(N)cc2c1=O	108	108	.	1
CCN1CCN(C(=O)c2ccc(S(=O)(=O)N(CC)CC)cc2)CC1	101	102	-2	16
CCNC(=O)Nc1c(-c2ccccc2)nc2ccccn12	100	101	-109	4
c1ccc(CSc2n[nH]c(-c3ccncc3)n2)cc1	101	101	9	-42
COc1ccc(CCNC(=O)CN(C)c2ccccc2)cc1OC	98	107	4	13
CCOC(=O)c1ccc(Nc2cc(C)nc(-c3ccccc3)n2)cc1	102	104	50	-26
O=C(Cn1cc(S(=O)(=O)N2CCN(c3ccccc3F)CC2)c2ccccc2c1=O)Nc1ccc(Cl)cn1	96	103	11	17
Cc1ccc(C)c(NC(=O)C(C)N2C(=O)C3C4C=CC(C4)C3C2=O)c1 (stereo not given)	102	105	-5	-4
O=c1cc(N2CCOCC2)oc2c(-c3ccccc3)cccc12	101&100	100&100	-37	-9
CC(C)CCNCC1OCc2ccccc2CO1	106	114	.	1
Cc1ccc(N2CCNCC2=O)c(C)c1	99	103	-16	12
N#Cc1ccccc1-c1nnn(CC(=O)N/N=C/c2ccc3c(c2)OCO3)n1	100	99	8	8
Cc1cc(C)c(OCC(O)CNC(C)(C)C)c(C)c1 (stereo not given)	104	108	-5	-20
O=C1C(Nc2ccccc2)=CC(c2ccccc2)N1c1ccccc1 (stereo not given)	106	105	.	-8

Further records
canonical_smiles	Polio RdRp inh	Polio RdRp inh intensity	MbtI inh	MenB inh
O=C(C1CCN(S(=O)(=O)/C=C/c2ccccc2)CC1)N1CCN(c2ccccn2)CC1	101	108	98	-7
CC1(C)CC(=O)C(C=NCCN2CCN(C(=S)Nc3ccccc3)CC2)=C(O)C1	102	102	0	-6
CCOC(=O)c1ccc(S(=O)(=O)N2CCC(C(=O)OCC)CC2)cc1	105	101	-9	-18
Nc1nc(CN2CCN(c3ccccc3)CC2)nc(Nc2ccccc2)n1	98	102	1	2
COc1ccc(C(C)(C)C)cc1NC(=O)COC(=O)C1CCC1	102	98	4	.
CCOC(=O)c1sc(=N)n(CC(=O)c2ccc(F)cc2)c1C	1.0*	12*	10	-7
CC(C)(C)OC(=O)N1C(C(=O)O)CSC1c1cccc(Br)c1 (stereo not given)	105	100	-1	-18
CC1Cc2ccccc2N1C(=O)c1cccc(COc2ccc(Cl)cc2)c1 (stereo not given)	103	107	-10	-34
